Screening data: PubChem, Broad Institute
DUX4 txn inh = inhibitors of DUX4-driven ZSCAN4 reporter expression, primary screen, 293T cells, Gaussia and Italica luciferase; 293T-iDUX4 ZSCAN4-Gaussia luciferase reporter, 24 h; hits give low values; activity change, negative = inhibition, % (test concentration not listed); 0.8% of 37,000 active;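 active means -10% or lower and over 25 points stronger than a control reporter; inconclusive means -10% or lower with a smaller gap; inactive means above -10%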;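 further: 0% = median of neutral control wells and -100% = median of positive control wells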
DUX4 txn inh difference = also measured in DUX4 txn inh; calls as there; Gaussia minus Italica difference, %; measured here: selective DUX4 reporter inhibition;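 worked out from the two reporters; negative = selective loss of the DUX4 reporter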
DUX4 txn inh control = further read-out of DUX4 txn inh, marked with its call; activity change, negative = inhibition, %; measured here: Italica tet-on control reporter;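 0 = neutral control and -100 = positive control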
* hit, by the source's call; ? = inconclusive; nt = no result given. An excerpt; the hit share may differ from the screen's.

SMILES	DUX4 txn inh	DUX4 txn inh difference	DUX4 txn inh control
O=S(=O)(c1ccccc1)N1CCCCN2[C@H](C1)[C@@H](c1ccc(C#Cc3cccnc3)cc1)[C@@H]2CO	0	1	-0.4
C[C@H](CO)N1C[C@H](C)[C@H](CN(C)C(=O)CCC(F)(F)F)OCc2cn(nn2)CCCC1=O	-9	-10	0.9
CCC(=O)N1CC[C@@H]2[C@H]1c1cc(C#Cc3ccccc3)ccc1N[C@@H]2CO	2	-10	12
C[C@H](CO)N1C[C@H](C)[C@H](CN(C)Cc2ccc(C(=O)O)cc2)OCc2cn(nn2)CCCC1=O	-2	-2	-0.3
CNC(=O)C[C@@H]1CC[C@@H]2[C@H](COc3ccc(NC(=O)NC(C)C)cc3C(=O)N2C)O1	0	2	-1.5
CC(=O)N1CCCCN2[C@H](CO)[C@@H](c3ccc(-c4ccccc4)cc3)[C@H]2C1	25	18	7.0
CC(C)C[C@H]1COCn2nncc2CC[C@H](Cc2ccccc2)C(=O)N1	3	0	3.5
Cc1ccc(S(=O)(=O)N[C@H]2CC[C@H](CC(=O)NCc3ccncn3)O[C@H]2CO)cc1	-3	-5	1.8
C/C=C/c1ccc([C@@H]2[C@H](CO)N3CCCCN(C(=O)CN(C)C)C[C@@H]23)cc1	30	14	17
C[C@H]1CC=CC[C@@H](c2cccc(Cl)c2)NC(=O)[C@H](Cc2ccccc2)N(C)C(=O)c2ccccc2O1 (mixture of isomers)	-3	-5	2.1

4 structures from above, ordered by SMILES length, lowest first.
SMILES	DUX4 txn inh	DUX4 txn inh difference	DUX4 txn inh control
CC(C)C[C@H]1COCn2nncc2CC[C@H](Cc2ccccc2)C(=O)N1	3	0	3.5
CC(=O)N1CCCCN2[C@H](CO)[C@@H](c3ccc(-c4ccccc4)cc3)[C@H]2C1	25	18	7.0
C[C@H](CO)N1C[C@H](C)[C@H](CN(C)C(=O)CCC(F)(F)F)OCc2cn(nn2)CCCC1=O	-9	-10	0.9
C[C@H](CO)N1C[C@H](C)[C@H](CN(C)Cc2ccc(C(=O)O)cc2)OCc2cn(nn2)CCCC1=O	-2	-2	-0.3

(continued)
SMILES	DUX4 txn inh	DUX4 txn inh difference	DUX4 txn inh control
COc1ccc2c3c(n(C)c2c1)[C@H](CO)N(C(=O)CN(C)C)CC31CN(Cc2nccs2)C1	17	10	6.6
O=C(C[C@H]1CC[C@@H](NS(=O)(=O)c2cccc(F)c2)[C@H](CO)O1)NCc1ccc2c(c1)OCO2	4	5	-1.9
C[C@H](O)C#Cc1ccc2c(c1)O[C@H](CN(C)Cc1ccc(-c3ccccc3)cc1)[C@H](C)CN([C@H](C)CO)S2(=O)=O	1	-3	3.6
CN(C)CC(=O)N[C@H]1CC[C@H](CCNC(=O)C2CCC2)O[C@@H]1CO	7	7	0.4
CCCC(=O)Nc1ccc2c(c1)OC[C@@H](C)N(CCc1ccccc1)C[C@@H](C)[C@H](OC)CN(C)C2=O	?	nt	nt
Cn1cnc(S(=O)(=O)N2CCCCN3[C@H](C2)[C@H](c2ccc(C4=CCCCC4)cc2)[C@@H]3CO)c1	-5	13	-18
CO[C@H]1CN(C)C(=O)c2ccc(NC(=O)NC(C)C)cc2OC[C@@H](C)N(Cc2ccc(-c3ccccn3)cc2)C[C@@H]1C	-7	0	-6.8
C[C@@H]1CN([C@@H](C)CO)C(=O)c2cc(NC(=O)CCC(F)(F)F)ccc2O[C@@H](C)CCCCO[C@@H]1CN(C)C(=O)c1ccncc1	-3	-2	-0.8
O=C(C[C@H]1CC[C@@H]2[C@H](COC[C@@H](O)CN2C(=O)c2ccncc2)O1)NCc1cccc(F)c1	20	4	16
O=S(=O)(c1ccccc1)N1CCCCN2[C@H](CO)[C@H](c3ccc(C#Cc4cccnc4)cc3)[C@@H]2C1	-56*	-27*	-30*
CCC(=O)N1[C@@H]2c3ccc(C4=CCCC4)c(=O)n3C[C@H]1[C@H](CO)[C@H]2C(=O)N[C@H](C)c1ccccc1	-2	4	-6.6
C[C@H]1CN([C@@H](C)CO)C(=O)c2cc(C#CC3(O)CCCC3)cnc2O[C@H]1CN(C)S(=O)(=O)c1cccc(F)c1	-4	-3	-1.3
COc1ccc2c3c([nH]c2c1)[C@@H](CO)N(Cc1ccccc1)CC31CN(C(=O)Nc2cccc(F)c2)C1	?	nt	nt
Cc1ccc(S(=O)(=O)N(C)C[C@H]2OCCCC[C@H](C)Oc3ccc(NC(=O)c4ccncc4)cc3C(=O)N([C@@H](C)CO)C[C@@H]2C)cc1	-4	-6	1.4
CN1c2ccc(-c3ccc(F)cc3)cc2[C@@H]2[C@@H](CCN2S(=O)(=O)c2cccc(F)c2)[C@@H]1CO	3	-9	12
O=C(NCC[C@@H]1CC[C@@H](NC(=O)c2ccc3c(c2)OCO3)[C@H](CO)O1)Nc1cc(F)ccc1F	1	-2	2.8
N#C[C@@H]1[C@@H](c2ccc(-c3cncnc3)cc2)[C@H](CO)N1C(=O)CN1CCOCC1	2	5	-2.8
CO[C@H]1CC[C@@H]2CCOc3c(C#N)cccc3C(=O)N(C)C[C@@H](c3ccccc3)CC(=O)N(C)C[C@@H]1O2	0	-2	2.0
O=C(Cc1ccccc1)N1C[C@H]2[C@@H](c3ccccc31)[C@H](CO)N2C(=O)c1cccc(F)c1	-1	10	-12
COc1ccc(NC(=O)N[C@@H]2CC[C@H](CC(=O)NC3CCCCC3)O[C@@H]2CO)cc1	0	2	-1.2
Cc1cccc(S(=O)(=O)N2CCCCN3[C@H](CO)[C@@H](c4ccc(C#C[C@@H](C)O)cc4)[C@@H]3C2)c1	-4	-1	-3.4
COCC(=O)N1CC[C@@H]2[C@H]1c1cc(-c3ccccc3)ccc1N(C)[C@@H]2CO	?	nt	nt
C[C@@H]1CN([C@@H](C)CO)C(=O)c2cc(C3=CCCC3)cnc2O[C@H]1CN(C)C(=O)NC1CCCC1	-5	-5	-0.6
CN1C(=O)c2cc(NC(=O)c3cccc(C(F)(F)F)c3)ccc2OC[C@@H]2O[C@@H](CC(=O)O)CC[C@H]21	-7	-1	-5.5
O=C(N[C@@H]1CC[C@H](CCNS(=O)(=O)c2ccccc2Cl)O[C@H]1CO)c1ccc(F)cc1	1	0	1.4
CO[C@H]1CC[C@@H]2CCOc3ccc(C#N)cc3C(=O)N(C)C[C@@H](OC)[C@H](C)C(=O)N(C)C[C@@H]1O2	1	1	-0.2
CC(=O)N1[C@@H](CO)[C@H](c2ccccc2)[C@@H]1CN(C)C(=O)CN1CCOCC1	-7	-10	3.0
C[C@@H]1CN([C@H](C)CO)C(=O)c2ccccc2-c2ccccc2CO[C@@H]1CN(C)C(=O)Nc1ccc(-c2ccccc2)cc1	6	2	3.9
O=C(N[C@@H]1C=C[C@@H](CC(=O)N2CCC(Cc3ccccc3)CC2)O[C@H]1CO)c1cnccn1	4	8	-3.3
O=C(c1ccccn1)N1C[C@@H]2[C@H](c3ccccc31)[C@H](CO)N2C(=O)Cc1ccccc1	3	-2	4.2
CN1[C@@H]2Cn3c(ccc(-c4ccccc4)c3=O)[C@H]1[C@@H](C(=O)NC1CCCCC1)[C@@H]2CO	1	-8	8.4
CO[C@H]1CN(C)C(=O)c2ccc(NC(=O)Nc3cccc(Cl)c3)cc2OC[C@H](C)NC[C@@H]1C	?	nt	nt
COc1ccc(S(=O)(=O)N(C)C[C@@H]2OCc3cnnn3CCCC(=O)N([C@H](C)CO)C[C@@H]2C)cc1	1	1	-0.1
CO[C@H]1CN(C)C(=O)c2ccc(NC(=O)C3CCC3)cc2OC[C@@H](C)N(C(=O)CN(C)C)C[C@H]1C	0	1	-0.6
C[C@H](O)C#Cc1cnc2c(c1)C(=O)N([C@@H](C)CO)C[C@H](C)[C@@H](CN(C)C(=O)c1ccccc1F)O2	3	5	-1.4
CN(C)CCCNC(=O)C[C@H]1CC[C@@H]2[C@@H](COc3ccc(NC(=O)c4ccccc4F)cc3C(=O)N2C)O1	1	-1	1.6
N#C[C@H]1[C@H](c2ccccc2)[C@H](CO)N1S(=O)(=O)c1cccc(F)c1	-3	-1	-1.5
O=C(C[C@@H]1CC[C@H]2[C@@H](COC[C@@H](O)CN2C(=O)c2ccc(F)cc2)O1)NCc1cccc(F)c1	2	-1	2.5
COc1cccc(-c2ccc([C@H]3[C@@H](C#N)N(C(=O)c4ccccn4)[C@@H]3CO)cc2)c1	5	0	5.7
O=C(Nc1ccc2c(c1)[C@@H]1C[C@H](CC(=O)N3CCCCC3)O[C@H](CO)[C@@H]1O2)NC1CCCCC1	-1	5	-6.0

Quoted at random: 6 compounds from above.
SMILES	DUX4 txn inh	DUX4 txn inh difference	DUX4 txn inh control
CO[C@H]1CN(C)C(=O)c2ccc(NC(=O)C3CCC3)cc2OC[C@@H](C)N(C(=O)CN(C)C)C[C@H]1C	0	1	-0.6
CN(C)CCCNC(=O)C[C@H]1CC[C@@H]2[C@@H](COc3ccc(NC(=O)c4ccccc4F)cc3C(=O)N2C)O1	1	-1	1.6
O=C(Nc1ccc2c(c1)[C@@H]1C[C@H](CC(=O)N3CCCCC3)O[C@H](CO)[C@@H]1O2)NC1CCCCC1	-1	5	-6.0
CO[C@H]1CN(C)C(=O)c2ccc(NC(=O)Nc3cccc(Cl)c3)cc2OC[C@H](C)NC[C@@H]1C	?	nt	nt
COc1cccc(-c2ccc([C@H]3[C@@H](C#N)N(C(=O)c4ccccn4)[C@@H]3CO)cc2)c1	5	0	5.7
O=C(C[C@@H]1CC[C@H]2[C@@H](COC[C@@H](O)CN2C(=O)c2ccc(F)cc2)O1)NCc1cccc(F)c1	2	-1	2.5

Next records follow:
SMILES	DUX4 txn inh	DUX4 txn inh difference	DUX4 txn inh control
O=C(NC1CCC1)[C@@H]1[C@@H](CO)[C@@H]2Cn3c(ccc(-c4ccccc4F)c3=O)[C@@H]2N1Cc1cocn1	5	5	0.2
COc1cccc(NC(=O)Nc2ccc3c(c2)C(=O)N(C)[C@@H]2CC[C@H](CC(=O)NCCc4ccccc4)O[C@@H]2CO3)c1	0	-3	2.6
O=C(N[C@@H]1CC[C@@H](CCNS(=O)(=O)c2ccc(Cl)cc2)O[C@H]1CO)c1ccccn1	2	1	1.1
CC(C)CC#Cc1ccc([C@@H]2[C@H](CO)N3CCCCN(S(=O)(=O)c4ccc(F)cc4)C[C@@H]23)cc1	1	11	-9.9
C[C@H]1CN([C@@H](C)CO)C(=O)c2cc(-c3cccc(C(=O)N(C)C)c3)cnc2O[C@@H]1CN(C)S(=O)(=O)c1cccc(F)c1	-2	-5	3.8
C[C@@H]1CCCCO[C@H](CN(C)C(=O)C2CCCCC2)[C@@H](C)CN([C@@H](C)CO)C(=O)c2cc(N(C)C)ccc2O1	-3	-1	-1.6
O=C(CN1CCOCC1)N1CCCCN2[C@H](CO)[C@@H](c3ccc(-c4ccccc4)cc3)[C@H]2C1	15	4	10
Cc1ccc(S(=O)(=O)N[C@@H]2CC[C@H](CCn3cc(C4(O)CCCC4)nn3)O[C@@H]2CO)cc1	-1	0	-0.1
CCCC#Cc1ccc([C@@H]2[C@@H](CO)N3CCCCN(C(=O)NC4CCCC4)C[C@H]23)cc1	-2	4	-6.9
C/C=C/c1ccc([C@@H]2[C@H](CO)N(CC3CCOCC3)C23CN(C(=O)COC)C3)cc1	12	5	6.5
O=C(c1ccc(F)cc1)N1CC(=O)N2[C@@H](CO)[C@@H](c3ccc(-c4cccnc4)cc3)[C@@H]2C1	0	-6	6.5
O=C(Nc1ccccc1Cl)N1[C@@H](CO)[C@@H]2c3ccccc3NC[C@@H]21	1	-3	3.8
COCC(=O)N(C)C[C@H]1Oc2cc(-c3ccc(OC)cc3)ccc2S(=O)(=O)N([C@@H](C)CO)C[C@@H]1C	0	-3	2.7
C[C@H](C(=O)N(C)C[C@H]1OCc2ccccc2-c2ccccc2C(=O)N([C@@H](C)CO)C[C@@H]1C)c1ccccc1	9	8	0.5
C[C@@H](NC(=O)C[C@H]1CC[C@H]2[C@@H](COc3ccc(NS(=O)(=O)c4ccc(Cl)cc4)cc3C(=O)N2C)O1)c1ccccc1	0	-3	3.3
O=C(O)C[C@H]1C[C@H]2c3cc(NC(=O)Nc4ccccc4)ccc3O[C@H]2[C@H](CO)O1	2	1	0.2
CO[C@@H]1CC[C@@H]2CCOc3ccc(C#N)cc3C(=O)N(C)C[C@H](C)C(=O)N(C)C[C@@H]1O2	-2	-4	1.7
CCS(=O)(=O)N1CCCCN2[C@H](CO)[C@@H](c3ccc(C#Cc4ccccn4)cc3)[C@@H]2C1	11	11	0.3
O=C(C[C@@H]1CC[C@H]2[C@@H](COC[C@@H](O)CN2C(=O)c2cnccn2)O1)NCc1ccccc1	9	3	6.6
Cn1cnc(CCNC(=O)C[C@@H]2CC[C@H]3[C@@H](COC[C@@H](O)CN3C(=O)C3CCCC3)O2)c1	6	5	0.4
C[C@@H]1CN([C@H](C)CO)C(=O)c2c(c3ccccc3n2C)-c2ccccc2CO[C@@H]1CN(C)Cc1cccc(C(=O)O)c1	16	0	17
O=C(CC1CC1)N1CC(=O)N2[C@H](CO)[C@@H](c3ccc(C#Cc4ccc(F)cc4)cc3)[C@H]2C1	-5	0	-5.1
O=C(C[C@@H]1CC[C@@H]2[C@H](COC[C@@H](O)CN2Cc2cccc(-c3ccncc3)c2)O1)N1CCN(c2ccccc2)CC1	?	nt	nt
Cc1cccc(S(=O)(=O)N(C)C[C@@H]2OCc3ccccc3-c3c(n(C)c4ccccc34)C(=O)N([C@H](C)CO)C[C@@H]2C)c1	?	nt	nt
